miR-21 FLuc = raises the signal of a miR-21 reporter; HeLa miR-21 FLuc reporter, luciferase, 48 h; Potency, µM (titrated, usually from 38.3 µM), inactives show top-dose reporter change, positive = more light; 340,000 tested, under 10 active; active = well fitted rising curve with a large enough effect; inconclusive = small, poorly fitted or top-dose-only effect; inactive = no such curve, though single readings can be large or run the other way;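 further: % of control where 0% means no effect; miR-21 action dims this reporter so a rising signal means less miR-21 action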
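HeLa cells endogenously expressing miR-21, stably carrying CMV-driven firefly luciferase with a downstream miR-21 binding site, 2000 cells/well. Titrations up to approximately 40 uM, 48 hours; luciferase luminescence read.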
Rango complex inh = inhibitors of Rango-importin beta complex formation; Q14974; hit rate 0.031% among 340,000; AID 540263; Potency, µM (top dose mostly 92.2 µM), for inactives: top-dose inhibition of complex formation; Rango CFP/YFP FRET sensor + importin beta, 45 min; active = rising FRET ratio curve, often small or poorly fitted; inconclusive = mostly compound fluorescence or quenching in the first reads; inactive = flat curves in all reads;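 further: potency means the concentration at half of the fitted maximal effect; 0% = DMSO wells and 100% = buffer wells lacking importin beta; nearly all actives have a fitted effect of over 15% in size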
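Inhibition scored from the CFP 486 nm/YFP 530 nm FRET ratio 45 min after adding 0.125 microM importin beta to 50 nM Rango biosensor preincubated 5 min with compound (room temperature, PBS with DTT, Tween-20, BSA). No-importin wells as positive control.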
Rango release inh = inhibition of RanGTP-driven Rango-importin beta dissociation | O95149+P62826 | Biochemical FRET Rango-importin beta, RanGTP-induced dissociation | Potency, µM (titrated, usually from 46.1 µM), inactives show top-dose activity change, negative = inhibition | hit rate 0.071% among 340,000; active means falling FRET ratio curve, often poorly fitted, with flat reads before Ran was added; inconclusive means other falling curves, or compound fluorescence or quenching; inactive means flat or rising ratio curve;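 further: potency means the concentration at half of the fitted maximal effect; % of control where 0% means no effect; nearly all actives have a fitted effect of over 45% in size; -100% = wells without RanGTP and RCC1; the record marks most hits as doubtful in a second field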
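Recombinant Rango FRET biosensor (EYFP–snurportin 1 IBB–cerulean CFP10) at 0.1 uM premixed with 0.25 uM importin beta in PBS, 1 mM DTT, 0.02% Tween-20, 0.1% BSA. Compound added 5 min; RanGTP-RCC1 (0.6 uM Ran, 2 mM GTP, 0.2 uM RCC1) then triggers release, read at 45 min.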
GLA inh pH 4.5 = alpha-galactosidase A (human) inhibition, pH 4.5; 230,000 tested, under 10 active; P06280; purified enzyme, 4-MU-alpha-Gal fluorescence, pH 4.5; activity change, negative = inhibition, % at 105 µM; inconclusive = small, poorly fitted or top-dose-only inhibition, or a rising curve; inactive = flat fitted curve, though single readings scatter; no compound was filed as active;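 further: 0% = full activity with enzyme and -100% = basal without enzyme; dose as in the result columns while the protocol names 77 µM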
Target sequence (P06280 whole entry, looked up): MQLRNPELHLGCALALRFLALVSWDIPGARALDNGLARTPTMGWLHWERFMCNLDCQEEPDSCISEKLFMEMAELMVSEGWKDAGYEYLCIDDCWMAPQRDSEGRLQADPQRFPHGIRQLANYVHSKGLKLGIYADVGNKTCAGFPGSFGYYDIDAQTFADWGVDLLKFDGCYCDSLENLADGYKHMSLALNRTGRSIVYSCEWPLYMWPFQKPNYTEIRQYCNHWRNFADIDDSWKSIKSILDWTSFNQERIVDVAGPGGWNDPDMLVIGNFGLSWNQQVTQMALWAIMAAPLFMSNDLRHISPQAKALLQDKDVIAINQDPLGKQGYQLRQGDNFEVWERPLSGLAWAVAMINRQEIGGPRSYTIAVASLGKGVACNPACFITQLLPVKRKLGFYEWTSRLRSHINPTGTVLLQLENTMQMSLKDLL
Numbers without * were called inactive; ? = inconclusive; nt = not tested or not shown; & = joins results of further samples.

miR-21 FLuc	Rango complex inh	Rango release inh	GLA inh pH 4.5	molecule
nt	-6.4%	26%	nt	COc1ccc(NC(=O)N(C)C[C@H]2Oc3ccc(NC(=O)NC(C)C)cc3C(=O)N([C@H](C)CO)C[C@@H]2C)cc1
-59%	1.3%	7%	nt	Cc1c(-c2ccccc2)nnn1-c1ccc(F)cc1F
nt	3.1%	2%	nt	N#Cc1ccccc1NC(=O)C(=O)NCCCN1CCCC1=O
0%	0.0%	1%	3	N#Cc1ccc(COC(=O)CSc2nnc(C3CCCCC3)n2N)cc1
0%	0.5%	-2%	nt	Cc1cc2nnc(SCC(=O)Nc3ccc(Cl)cc3)n2c(N)n1
-6%	-9.2%	13%	3	CN(C)CCNc1oc(COc2cccc(Cl)c2)nc1C#N
-2%	0.9%	0%	-7	C#CCNC(=O)c1cc2sccc2n1C
nt	-0.2%	16%	nt	CCN1C(N(C)CCc2c[nH]c3ccccc23)=N[C@@H](c2cccc(C(F)(F)F)c2)C(C(=O)OC)=C1C
1%	-3.4%	-11%	10	COc1cc(C2C(C#N)=C(N)Oc3n[nH]c(C)c32)cc2c1OCO2 (centres undefined)
-3%	-2.2%	-3%	-11	CCOC(=O)CSc1nc2ccccc2n1CC(=O)NC(C)(C)C
-20%	?	?	-8	COc1ccc(/C=C/C(=O)C(C(N)=O)=C2SCCS2)cc1
-2%	2.2%	-14%	-7	Cc1sc2nc(CSc3ccccc3)nc(N3CCN(C)CC3)c2c1C
nt	-4.4%	12%	nt	Cc1cccn2c(=O)nc(SCC(=O)Nc3ccc4c(c3)OCO4)nc12
0%	-4.4%	10%	-1	CCOC(=O)N1CCN(CCC(=O)c2ccc(OC)cc2)CC1
19%	-1.4%	-8%	7	COc1cnc(-c2ccccn2)nc1Oc1cccc(Cl)c1
21%	2.7%	-10%	-1	Cc1ccc(NC(=O)C(C)c2ccc([N+](=O)[O-])cc2)cc1Cl (centres undefined)
-1%	-1.0%	-6%	1	O=C(CSc1ccsc1[N+](=O)[O-])NC1CCCC1
nt	?	5%	nt	C=CCN(Cc1cccs1)C(=O)CN1CCN(S(=O)(=O)c2ccc3c(c2)OCCCO3)CC1
0%	1.9%	-1%	-5	O=C(O)c1cc2c(s1)CCCC2
-4%	-1.4%	-8%	-4	Cc1cc(=O)n2[nH]c(SCc3ccccc3)nc2n1
7%	-1.7%	1%	-13	O=C(Cc1ccccc1)Nc1ccccc1N1CCN(c2ccccc2)CC1
-45%	3.6%	1%	6	Cn1cc(Br)c(C(=O)NC2C3CC4CC(C3)CC2C4)n1 (centres undefined)
4%	1.0%	-8%	5	C/C(=C\c1ccco1)CN1CCC(N2CCC(C(=O)N3CCOCC3)CC2)CC1
-39%	-4.9%	2%	nt	Cc1cc(SCC(=O)c2ccc(Cl)cc2)nc(=O)[nH]1
-1%	-1.2%	-11%	2	O=C(C1CC1)N1CCc2cc(S(=O)(=O)N(CCO)Cc3ccccc3)ccc21
-6%	-4.0%	14%	-3	COc1ccc(CCNC(=O)CSc2nc3[nH]ncc3c(=O)n2-c2ccc(C)c(Cl)c2)cc1OC
6%	?	?	nt	COc1ccc(/C=C2\SC(=S)N(CCCC(=O)Nc3cccc(C(=O)O)c3)C2=O)cc1OC
-4%	1.1%	-2%	-3	COc1ccc(N2CC(C(=O)Nc3ccc(F)cc3F)CC2=O)cc1 (centres undefined)
-9%	?	-6%	-6	COc1ccc(Oc2nc(C(F)(F)F)nc3ccccc23)cc1
-4%	-2.4%	-12%	nt	Nc1cccc(NC(=O)CCC(=O)NCc2ccco2)c1

Whole records as entered above. Values in the order: miR-21 FLuc, Rango complex inh, Rango release inh, GLA inh pH 4.5
COc1ccc(NC(=O)N(C)C[C@H]2Oc3ccc(NC(=O)NC(C)C)cc3C(=O)N([C@H](C)CO)C[C@@H]2C)cc1 is entered as nt, -6.4%, 26%, nt
CN(C)CCNc1oc(COc2cccc(Cl)c2)nc1C#N is entered as -6%, -9.2%, 13%, 3
O=C(O)c1cc2c(s1)CCCC2 is entered as 0%, 1.9%, -1%, -5

Next section:
miR-21 FLuc	Rango complex inh	Rango release inh	GLA inh pH 4.5	molecule
nt	-1.2%	-8%	nt	CN(CC(=O)Nc1cccc(F)c1)C(=O)CCNC(=O)c1ccco1
nt	0.3%	7%	nt	COC(=O)C1CC(O)C(O)C(O)C1 (centres undefined)
14%	-2.2%	6%	-2	COc1ccc(NS(=O)(=O)c2cccc(NC(=O)CCC(=O)c3ccc(Cl)cc3)c2)cc1
-37%	0.8%	-3%	3	Oc1ccccc1N1CCN(C(=S)NCCc2ccccc2)CC1
0%	-1.3%	-10%	2	COC(=O)[C@H](C)NC(=O)Nc1cccc(C(F)(F)F)c1
-7%	-0.9%	-6%	nt	CCS(=O)(=O)N1N=C(c2cccc(NS(C)(=O)=O)c2)CC1c1cccs1 (centres undefined)
0%	1.1%	-15%	nt	CCSc1nnc(NC(=O)CCNS(=O)(=O)c2ccccc2F)s1
nt	-0.2%	19%	nt	Cc1cc(C)c(NS(=O)(=O)c2ccccc2)c(C)c1NS(=O)(=O)c1ccccc1
-61%	-5.2%	21%	nt	CC1CCC(NC(=O)CNC(=O)c2cccs2)CC1 (centres undefined)
0%	0.3%	-12%	nt	Cc1nc(-c2ccc(S(=O)(=O)N3CCN(c4ccccc4)CC3)cc2)co1
-45%	1.1%	0%	nt	COc1c(C(=O)Nc2ccc(Br)cn2)ccc2ccccc12
nt	4.8%	21%	nt	CN(CC(=O)Nc1ccc(Cl)cc1)C(=O)CNC(=O)c1cccs1
-10%	2.0%	1%	-4	Cc1ccc(C)c(N(CC(=O)NN=C2CCN(C)CC2)S(=O)(=O)c2ccccc2)c1
3%	-1.3%	22%	2	COc1ccccc1OP(=O)(O)Oc1ccccc1OC
-6%	2.0%	-8%	2	O=Cc1ccc(-c2ccc(F)cc2)o1
0%	2.4%	1%	nt	O=C(Cc1ccc(Cl)cc1)Nc1ccc(C(=O)N2CCCCC2)cc1
-32%	-1.6%	2%	nt	COC(=O)/N=C(/Cc1ccc(OC)cc1)c1ccc(OC)cc1
-4%	-0.6%	2%	14	Cc1cc(-c2nc(C)c(-c3nnc(SCC(=O)Nc4ccc(Cl)cc4)n3C)s2)no1
1%&1%	7.4%	26%	nt	CCc1cccc(C)c1NC(=O)CSc1nc2ccncc2[nH]1
5%	-2.0%	-1%	1	Cc1ccc(S(=O)(=O)CC(C)N2CCOCC2)c(S(=O)(=O)CC(C)N2CCOCC2)c1 (centres undefined)
-6%	-3.8%	0%	3	O=C(c1ccccc1)N1N=C(c2ccccc2)CC1c1ccccc1[N+](=O)[O-] (centres undefined)
6%	4.8%	-5%	7	CCN(CC)S(=O)(=O)c1cccc(C(=O)Nc2cccnc2)c1
-2%	0.3%	19%	6	CN(C)C(=O)/C(=C\c1ccncc1)NC(=O)c1ccccc1
-1%	0.7%	1%	-1	O=C(NC1CCCCC1)C(c1cccnc1)N(C(=O)c1csnn1)C1CCCC1 (centres undefined)
-59%	4.5%	0%	nt	O=C(CNC(=O)c1cccs1)c1ccc(Cl)cc1
nt	-1.6%	2%	-1&-7&3	CC(C)(Oc1ccc(Cl)cc1)C(=O)O
-13%	-4.9%	-6%	-11	O=C(O)c1ccc(COc2ccccc2/C=C2/NC(=O)N(c3cccc(Cl)c3)C2=O)cc1
0%	-0.1%	20%	3	COc1ccccc1C(=O)NCC(=O)N/N=C/c1cc(Br)ccc1OCc1ccccc1
-11%	0.0%	-1%	0	O=C1CCC(=O)N1CCSC(=S)N1CCOCC1
-2%	-0.2%	4%	5	COCc1cc(=O)[nH]c2c1c(-c1ccccc1)nn2C

2 entries from above, as a markdown table:
| SMILES | miR-21 FLuc | Rango complex inh | Rango release inh | GLA inh pH 4.5 |
| --- | --- | --- | --- | --- |
| COC(=O)[C@H](C)NC(=O)Nc1cccc(C(F)(F)F)c1 | 0% | -1.3% | -10% | 2 |
| CCS(=O)(=O)N1N=C(c2cccc(NS(C)(=O)=O)c2)CC1c1cccs1 (centres undefined) | -7% | -0.9% | -6% | nt |

(listing goes on)
miR-21 FLuc	Rango complex inh	Rango release inh	GLA inh pH 4.5	molecule
-5%	0.2%	-9%	-4	COc1cc2c(cc1OC)C(c1ccc(-c3cc(Cl)ccc3Cl)o1)=NCC2
-6%	-0.3%	5%	-3	N/C(=N\OC(=O)c1cc(-c2ccccc2)nc2ccccc12)c1cccnc1
19%	3.5%	1%	0	O=C(COc1ccccc1)N1CCN(c2nnc(-c3ccccc3)c3ccccc23)CC1
-2%	?	13%	7	O=C(CN(c1ccc(Cl)cc1)S(=O)(=O)c1ccc(Cl)c([N+](=O)[O-])c1)NCCc1ccccc1
-13%	2.5%	33%	-7	CCCn1nc(C(=O)N2CCc3ccccc3C2)c2ccccc2c1=O
-19%	0.6%	7%	1	COc1ccc(NC(=O)Nc2ccc(F)c(F)c2)c(OC)c1
1%	3.1%	-3%	1	CCOc1ccccc1C(=O)NCCC(=O)O
-55%	-0.3%	-3%	-4	O=C(Nc1ccc(NC(=O)C2CC2)nc1)c1cccc(F)c1
-1%	-3.9%	4%	3	Cc1c(C(C)C)c(=O)n(-c2ccc(S(=O)(=O)N3CCOCC3)cc2)n1C
-2%	0.9%	10%	-5	Nc1nnc(SCC(=O)OCC(=O)NC2CCCCC2)s1
-24%	0.0%	6%	nt	COc1ccc(CNC(=O)CCn2c(=O)c3cccn3c3ccc(F)cc32)cc1
-6%	-1.8%	9%	-2	CCOCCCNC(=S)Nc1ccc(S(N)(=O)=O)cc1
-14%	2.2%	16%	-1	COCC(C)NC(=O)c1ccc(N(C)C)cc1 (centres undefined)
-1%	2.7%	-6%	-5	CCN(CC)C(=O)c1sc(NC(=O)c2ccc(Br)o2)c(C(=O)OC)c1C
2%	6.3%	2%	nt	CSc1ccc(C(=O)C2CCCN(C(=O)c3nonc3C)C2)cc1 (centres undefined)
3%	4.2%	-8%	3	c1cnc(N2CCN(Cc3c[nH]c4ccccc34)CC2)nc1
nt	-4.1%	12%	nt	O=C(NCc1ccccc1F)C(=O)NCC1CCCN1S(=O)(=O)c1ccccc1 (centres undefined)
-4%	nt	nt	-3	O=S(=O)(c1cccc(-c2nn3c(-c4ccncc4)nnc3s2)c1)N1CCOCC1
-3%	0.0%	1%	-3	CCOC(=O)c1ccc(NS(=O)(=O)c2ccc(SC)cc2)cc1
-26%	0.1%	-6%	-10	Cc1ccc(NC(=O)CN2CCC(C(N)=O)CC2)cc1[N+](=O)[O-]
-9%	-6.4%	0%	-4	COc1ccc(NC2c3ccccc3C(=O)N2c2cccnc2)cc1Cl (centres undefined)
-41%	4.2%	-8%	-2	COc1ccc(-c2ccc(-c3nnn(CC(C)=O)n3)cc2)cc1
-19%	-1.3%	-13%	11	O=C(NCc1ccc2c(c1)OCO2)c1nn2cccnc2c1Cl
0%	-2.4%	-11%	4	COc1ccc(/C=N/OCC(=O)N2CC3(C)CC2CC(C)(C)C3)cc1 (centres undefined)
3%	1.2%	6%	-5	NC1=NS(=O)(=O)NC1c1cccc(F)c1 (centres undefined)
-29%	-2.0%	-12%	-1	CN(c1ccc(C(=O)NCCC2=CCCCC2)cc1)S(C)(=O)=O
-4%	2.7%	0%	-2	Cc1cc(=O)n2nc(N3CCCC(C(=O)NCc4ccco4)C3)sc2n1 (centres undefined)
-4%	?	?	-2	Nc1nc2n(n1)C(c1ccccc1Cl)CC(c1ccc(F)cc1)N2 (centres undefined)
-23%	0.3%	-12%	nt	CCc1ccc(/C=C2/C(=O)NC(=O)N2C(C)=O)cc1
9%	3.2%	11%	2	CS(=O)(=O)N(Cc1ccccc1)c1ccc(C(=O)Nc2ccc3c(c2)OCO3)cc1
nt	1.4%	1%	nt	Cc1ccc(C(=O)N2CC(C)OC(C)C2)cc1S(=O)(=O)N1CCCCC1 (centres undefined)
-5%	0.9%	-6%	8	COCCCNC(=O)c1ccc2c(c1)CCN2S(C)(=O)=O
nt	-0.9%	-12%	nt	COc1ccccc1NS(=O)(=O)c1cc(NC(=O)c2cc(F)c(F)c(F)c2F)ccc1N1CCOCC1

High-throughput results from PubChem.

The list is partial, so the mix of outcomes need not match the whole.
